UCH37 DUB inh – inhibitors of human deubiquitinating enzyme UCH37; inhibition, % (no concentration beside the values); Q9Y5K5; hit rate 0.33% among 330,000; purified proteasome/UCH37, Ub-AMC cleavage fluorescence;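 active = mean of two replicates above 20%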;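 note: 0% = compound-free wells with enzyme and 100% = wells lacking proteasome; stock transfer was 100 nL into about 20 µL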
Target sequence (Q9Y5K5 whole entry, looked up): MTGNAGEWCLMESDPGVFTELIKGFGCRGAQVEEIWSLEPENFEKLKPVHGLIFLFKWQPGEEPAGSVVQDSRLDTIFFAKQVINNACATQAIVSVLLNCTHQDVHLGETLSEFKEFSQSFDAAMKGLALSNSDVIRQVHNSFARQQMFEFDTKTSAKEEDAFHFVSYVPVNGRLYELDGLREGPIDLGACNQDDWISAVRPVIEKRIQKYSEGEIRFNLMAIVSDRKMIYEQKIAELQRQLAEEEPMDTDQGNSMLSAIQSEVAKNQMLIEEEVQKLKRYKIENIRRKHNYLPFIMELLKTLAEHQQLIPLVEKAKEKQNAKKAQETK
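Reagent: Ub-AMC substrate; assay system: Proteasome-associated human UCH37 deubiquitinase; controls: no-proteasome and no-compound wells; read-out: % inhibition of Ub-AMC cleavage fluorescence; timing: 30 min preincubation with enzyme, 25 min cleavage at room temperature; signal: AMC fluorescence from Ub-AMC cleavage, excitation 355 nm, emission 460 nm; buffer or medium: Tris-HCl pH 7.4 plus ovalbumin, ATP-MgCl2, DTT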
Beta2AR agonist – human beta-2 adrenergic receptor agonism by FAP; response, % (concentration not given with the values); hit rate 0.43% among 340,000; Am2.2-beta2AR cells, FAP receptor internalization, flow cytometry; reference of the scale not given here; P07550;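 active = response above a set limit, near 3 SD of response in nonfluorescent compounds, cut at about 42% in these data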;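 note: stock transfer was 100 nL into about 11 µL; a reference agonist was the positive control; negative values mostly stem from fluorescent compounds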
Target sequence (P07550 whole entry, looked up): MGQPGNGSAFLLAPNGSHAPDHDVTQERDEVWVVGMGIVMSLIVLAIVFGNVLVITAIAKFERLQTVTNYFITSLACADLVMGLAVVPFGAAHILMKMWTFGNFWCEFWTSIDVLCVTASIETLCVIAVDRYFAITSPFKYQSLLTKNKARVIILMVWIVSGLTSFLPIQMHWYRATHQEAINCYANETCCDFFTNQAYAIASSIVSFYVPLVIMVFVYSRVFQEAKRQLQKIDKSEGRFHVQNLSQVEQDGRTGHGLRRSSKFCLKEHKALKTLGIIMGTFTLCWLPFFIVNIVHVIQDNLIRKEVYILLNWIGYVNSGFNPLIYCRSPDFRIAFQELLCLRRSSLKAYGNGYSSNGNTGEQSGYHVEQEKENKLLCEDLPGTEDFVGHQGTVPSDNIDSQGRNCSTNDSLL
ALR inh – blocks human ALR sulfhydryl oxidase activity. hit rate 3.8% among 290,000. AID 485317. purified ALR, DTT oxidation, H2O2 HRP-luminol luminescence. inhibition, % (concentration not given with the values);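 active = mean and each replicate at 75% or more; inconclusive = only one of the two met; inactive = neither met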;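 note: stock transfer was 7.5 nL into about 7.5 µL; 0% = neutral wells and 100% = wells with inactivated enzyme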
Ecoli growth – inhibitors of Escherichia coli growth; OD600 absorbance (no concentration beside the values); OD600, 23 h; active compounds read low; AID 1053175; hit rate 0.21% among 330,000;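 active = OD600 absorbance below the run mean of sample wells minus 3.6 SD, in any replicate, cut at about 0.56 in these data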;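 note: stock transfer was 300 nL into about 60 µL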
FGF22 binding – FGF22 (human) thermal shift binding | Q9HCT0 | recombinant FGF22 thermal shift, SYPRO orange fluorescence; percent of sucrose octasulfate shift, DMSO zero | calls only at 9.99 µM | hit rate 1.5% among 340,000 | AID 651658;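 active = melting point raised past a set limit in the mean and every replicate; inconclusive = no clear call; three in four hits are not shown here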
Target sequence (Q9HCT0 whole entry, looked up): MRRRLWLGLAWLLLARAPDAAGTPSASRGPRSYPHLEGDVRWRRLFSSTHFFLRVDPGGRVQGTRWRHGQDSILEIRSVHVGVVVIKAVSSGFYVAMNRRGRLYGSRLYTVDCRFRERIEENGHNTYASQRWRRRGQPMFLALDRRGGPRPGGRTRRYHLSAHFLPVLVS
rRNA inh HTS – selective bacterial rRNA inhibition in E. coli; GFP signal change (wild-type ribosome), % (concentration not given with the values); hit rate 1.6% among 350,000; AID 720706; E. coli WT GFP vs humanized-ribosome RFP mutants, fluorescence, 24 h; active compounds read low; DMSO median 0, no signal -100;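 active = significant combined selectivity score with lowered wild-type GFP, culture density cut under 30%, mutant RFP and density less affected; inactive = any of these conditions unmet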; note: one replicate is shown; some compounds called inactive have numbers as strong as hits
HNF4A DNA FP – change in binding of human HNF4 alpha to DNA; P41235; HNF4a-FITC DNA binding, fluorescence polarization, 1 h; activity change, % at 10 µM; hit rate 0.3% among 360,000; AID 1224865; in the data active = activity change above about 30%, passing the limit was not always enough;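 note: controls were the assay level and a saturating level of protein; the project sought stronger binding though the title names inhibitors; some compounds called inactive have numbers as strong as hits; positive values seem to mean higher polarization but the record does not say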
rRNA inh HTS OD600 – recorded beside rRNA inh HTS, whose call it bears; OD600 change, %; measured here: OD600 growth;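 optical density of the mix in the first replicate; 0 = DMSO median and -100 = no signal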
rRNA inh HTS RFP – also measured in rRNA inh HTS; calls as there; RFP signal change, %; measured here: RFP humanized mutant strains;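 first replicate; 0 = DMSO median and -100 = no signal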
An asterisk follows results filed as active; i = inactive; u = inconclusive; x = not tested or not shown. The list is partial. The share of hits here may be higher or lower than overall.

entry | Compound | UCH37 DUB inh | Beta2AR agonist | ALR inh | Ecoli growth | FGF22 binding | rRNA inh HTS | rRNA inh HTS OD600 | rRNA inh HTS RFP | HNF4A DNA FP
1 | O=C(CCC(=O)OCC(=O)c1ccc([N+](=O)[O-])cc1)Nc1ccccc1Cl | 2.5 | -3.3 | 11.3 | 0.73 | x | x | x | x | 3.4
2 | CCSc1nc2c(c(=O)n(C)c(=O)n2C)n1Cc1ccc(Cl)cc1 | 4.7 | -3.8 | x | 0.799 | x | x | x | x | 1.8
3 | O=C(CCl)N(C/C=C/c1ccccc1)c1ccc2c(c1)OCCO2 | -0.2 | 33.7 | 57.6 | 0.631 | i | 9.9 | 3.6 | 2.6 | 0.4
4 | CCN(CC)CCOc1cc2c(nn1)Oc1ccccc1N2C | -423.2 | -27.2 | x | 0.668 | x | x | x | x | 4.0
5 | CCN(CC)S(=O)(=O)c1cccc(-c2nnc(SCC(N)=O)n2CCc2ccccc2)c1 | 0.2 | -1.9 | 8.3 | 0.707 | x | x | x | x | -5.2
6 | O=C(NCCCN1CCOCC1)c1cc2nc(-c3ccco3)cc(C(F)(F)F)n2n1 | -261.1 | -9.6 | x | 0.635 | i | -0.1 | 1.8 | -1.4 | 1.9
7 | CCO[C@H]1OC(C(=O)O)=C[C@@H](C)[C@@H]1CCCO | -0.1 | 3.1 | -2.5 | x | i | 11.7 | 10.7 | -0.7 | 0.3
8 | CC(C)n1nc(C(=O)Nc2nc3ccc(S(C)(=O)=O)cc3s2)c2ccccc2c1=O | -17.1 | 3.0 | -2.9 | 0.68 | x | x | x | x | 2.5
9 | CC(C)(C)C(=O)NC(=S)Nc1ccccn1 | 1.5 | -9.0 | 34.2 | 0.715 | i | 9.6 | 10.3 | -0.4 | 0.4
10 | COc1ccc(C2(C)NC(=O)N(CC(=O)Nc3ccc(Br)c(C)c3)C2=O)cc1OC (stereo unspecified) | 3.3 | 2.2 | -2.9 | 0.701 | i | -12.3 | -17.8 | 6.7 | -3.0
11 | CC(=O)Nc1ccccc1C(=O)C(=O)Nc1ccc(C)c(F)c1 | -0.1 | -8.4 | -16.9 | 0.704 | i | 10.5 | -0.5 | -12.0 | 3.8
12 | CCCCC(=O)OC1CCC2C3CCc4cc(O)ccc4C3CCC12C (stereo unspecified) | x | 35.6 | x | x | i | x | x | x | 1.6
13 | O=C(Nc1ccc(C(=O)N2CCCCC2)cc1)c1ccccc1Cl | 2.5 | -5.2 | -1.9 | 0.698 | i | 5.4 | 10.9 | -0.5 | 3.2
14 | N#Cc1ccccc1OCC(=O)NC1CCCCCC1 | x | x | x | x | i | -16.1 | -16.6 | -4.2 | -0.7
15 | COc1ccccc1N(C)S(=O)(=O)c1ccc(C)c(C(=O)NC(C)c2ccccn2)c1 (stereo unspecified) | 3.6 | 0.2 | x | 0.646 | i | -1.7 | 0.9 | 2.9 | 4.3
16 | O=C(N/N=C/c1cccs1)c1cccc(S(=O)(=O)Nc2ccc(Cl)cc2)c1 | x | -7.2 | -4.2 | x | i | 0.6 | -1.3 | 3.3 | 3.0
17 | Cn1cc(S(=O)(=O)c2ccccc2)n(C)c1=O | 0.9 | 21.3 | -17.9 | 0.696 | i | 9.2 | 14.1 | -1.4 | 4.8
18 | Cc1ccc(S(=O)(=O)NC(=O)C2(C)CCN2C(=O)c2ccc(C(F)(F)F)nc2C)cc1 (stereo unspecified) | x | x | x | x | i | 5.6 | 8.1 | -3.8 | 2.9
19 | Cc1cc2c(ncn2C)c(NS(=O)(=O)c2cc(Cl)ccc2Cl)c1C | 2.9 | 3.7 | x | 0.704 | x | x | x | x | -4.9
20 | CSc1sc(-c2nnc(SCC(=O)Nc3ccc(Cl)cc3)n2C)c2c1C=CCC2 | -39.7 | -2.9 | -3.4 | 0.709 | i | -1.8 | 1.3 | -1.1 | 4.1
21 | Cc1nc2ccccc2nc1OCc1cccc(Cl)c1 | -15.6 | -4.2 | x | 0.685 | x | x | x | x | 2.4
22 | COc1ccc(/C(C)=N/Nc2ccc(F)cc2F)c(O)c1 | x | 4.1 | 49.2 | x | i | 2.6 | 2.3 | -2.2 | -0.1
23 | N#Cc1nccc2ccc(OCc3ccc(Br)cc3)cc12 | x | x | x | x | i | 7.5 | 5.9 | 0.3 | -5.3
24 | O=C(/C=C/c1ccccc1)Nn1cnc2ccccc2c1=O | 3.4 | -18.9 | 1.1 | 0.721 | x | x | x | x | 0.2
25 | CC(c1ccco1)N(C(=O)c1cccc(Br)c1)c1ccccn1 (stereo unspecified) | 6.3 | 3.2 | x | 0.668 | i | -6.6 | -6.3 | -0.6 | 4.1
26 | CCC(CC)C(=O)Nc1cccc(C(=O)NCCc2ccc(S(N)(=O)=O)cc2)c1 | 1.3 | 3.1 | -1.7 | 0.695 | x | x | x | x | 4.6
27 | COC(=O)c1ccc(NC(=O)CN2C(=O)C3C4C=CC(C4)C3C2=O)cc1 (stereo unspecified) | -0.7 | 7.2 | x | 0.714 | x | x | x | x | -1.6
28 | COC(=O)c1sccc1NC(=O)C1CCCCC1C(=O)O (stereo unspecified) | -1.0 | -5.4 | -5.6 | 0.633 | i | 6.3 | 4.4 | 0.2 | 0.8
29 | c1ccc(Nc2nnc(-c3cccc4ccccc34)o2)cc1 | -14.8 | -4.0 | -17.0 | 0.655 | i | 3.6 | 12.6 | -2.5 | 1.7
30 | Cc1cccc(C)c1N1CCN(C(=O)c2ccc3c(c2)OCO3)CC1 | -0.2 | -6.1 | -3.5 | 0.637 | i | -42.5 | -68.0 | -3.7 | -2.5
31 | CCOC(=O)c1[nH]c(C)c(C(=O)NCCCN2CCOCC2)c1C | 2.5 | 10.0 | 12.8 | 0.742 | x | x | x | x | 0.5
32 | COc1ccc(S(=O)(=O)N2CCOCC2)cc1NC(=O)CNC(=O)c1cccs1 | 0.0 | 4.5 | x | 0.723 | i | 7.8 | 11.0 | -0.9 | 1.1
33 | CNc1cncc(-c2cc(OC)ccc2OC)n1 | x | x | x | x | i | 6.5 | 8.7 | -0.8 | -2.0
34 | COc1ccc(C2CC(c3ccccc3)Nc3ncnn32)cc1 (stereo unspecified) | -1.9 | -11.1 | -1.7 | 0.767 | i | 7.8 | 12.6 | 0.1 | 2.6
35 | COc1cccc(C(c2nnnn2Cc2ccccc2)N2CCN(C(=O)c3ccco3)CC2)c1OC (stereo unspecified) | 1.9 | -4.2 | 3.7 | 0.8 | x | x | x | x | -2.0
36 | O=C(NC(=S)N1CCCc2ccccc21)c1ccco1 | 5.4 | 1.9 | 7.9 | 0.688 | i | -2.9 | -4.1 | -2.6 | -0.8
37 | CC(C)c1ccc(NC(=O)c2ccc(Br)o2)cc1 | 2.4 | 12.7 | 5.9 | 0.689 | x | x | x | x | -3.3
38 | COc1cc(C(=O)ONC(=O)c2ccc(OC(F)F)cc2)cc(OC)c1OC | -1.2 | -0.8 | u | 0.656 | i | -1.1 | -6.7 | -0.7 | 1.7
39 | Cc1cc(=O)n2nc(N3CCCC3C(=O)NCCCN3CCCCC3)sc2n1 (stereo unspecified) | -1.1 | 4.0 | -10.2 | 0.694 | x | x | x | x | 0.4
40 | CCN(CC)C(=O)Oc1ccc2c(=O)c(-c3ccccc3)coc2c1 | -1.8 | 2.9 | -1.7 | 0.651 | x | x | x | x | -0.9
41 | Cc1cccc(N(C(=O)c2snc(C(N)=O)c2N)C(C(=O)NCC2CCCO2)c2c[nH]c3ccccc23)c1 (stereo unspecified) | -21.1 | 3.0 | -2.5 | 0.638 | i | -3.5 | -2.0 | 3.3 | -2.0
42 | CCn1ccnc1CN(C)Cc1cn(-c2ccc(C)cc2)nc1-c1ccc(F)cc1 | 4.0 | 1.5 | -4.9 | 0.692 | i | -4.8 | -7.9 | 1.8 | -4.1
43 | NC(=O)c1ccc(NC(=O)COC(=O)c2ccc3c(c2)OCO3)cc1 | 0.0 | 2.9 | -0.8 | 0.66 | i | 12.6 | 8.3 | -0.3 | -2.0
44 | O=C1CN(C(=O)COC(=O)c2cccc(S(=O)(=O)NCc3ccccc3)c2)c2ccccc2N1 | 1.3 | -13.4 | -2.5 | 0.716 | x | x | x | x | -0.6
45 | COC(=O)c1ccc(CN2C(=O)C(C)N(C(=O)c3c(F)cccc3F)c3ccccc32)cc1 (stereo unspecified) | 4.6 | 0.1 | -3.9 | 0.701 | i | -16.8 | -9.7 | -2.8 | 2.2
46 | CCCS(=O)(=O)N1CCCC(C(=O)NCCc2ccc(OC)c(OC)c2)C1 (stereo unspecified) | 5.8 | -11.9 | -10.8 | 0.697 | x | x | x | x | -0.5
47 | Cc1ccc2cc(COC(=O)c3ccco3)c(=O)[nH]c2c1 | -0.3 | 3.2 | -2.9 | 0.699 | x | x | x | x | -5.6
48 | C[C@@]12C(=O)Nc3ccc(F)cc3C(=O)N1[C@H]1c3cc(Br)ccc3OC[C@@H]1[C@@H]2c1ccccc1 | -31.9 | 11.3 | 1.6 | 0.802 | i | 1.9 | -12.9 | -6.8 | -0.9
49 | CCc1ccc(NC(=O)CC2C(=O)N(c3ccc(C)cc3)C(=O)N2CCc2ccncc2)cc1 (stereo unspecified) | -1.1 | -28.6 | -16.0 | 0.694 | x | -15.4 | -27.1 | 1.1 | -0.6
50 | NNC(=O)CNC(c1ccccc1)c1cc(Br)ccc1NC(=O)c1ccccc1Br (stereo unspecified) | 2.5 | 10.2 | -6.1 | 0.67 | x | x | x | x | -0.2
51 | O=C(c1ccc(-c2ccccc2)c(F)c1)C1CCCN(CCCn2cccn2)C1 (stereo unspecified) | 1.8 | 5.3 | x | 0.696 | i | -22.2* | -15.1* | 6.4* | -0.6
52 | CC(NC(=O)COC(=O)CCc1nc2ccccc2c(=O)[nH]1)c1ccccc1 (stereo unspecified) | -0.3 | -4.2 | 5.4 | 0.726 | i | -1.2 | 7.7 | -0.5 | -2.5
53 | COc1cc(NC(=O)COC(=O)c2cc(S(=O)(=O)N3CCCCC3)ccc2Cl)c(C)cc1[N+](=O)[O-] | 3.9 | 7.8 | -7.2 | 0.7 | x | x | x | x | 1.2
54 | COc1ccc(NC(=O)CN(C)S(=O)(=O)c2ccccc2)cc1OC | 3.1 | 4.7 | -14.3 | 0.65 | i | -21.4* | -15.8* | 5.7* | -1.5
55 | COc1ccc(-c2cc3cc(C(=O)O)ccn3c2C(=O)c2ccccc2)cc1 | 9.2 | 2.8 | 13.0 | 0.635 | i | -44.0 | -71.3 | -11.6 | -2.3
56 | CCS(=O)(=O)N1CCN(C(=O)CC(C)C)CC1 | 1.1 | -0.6 | -4.1 | 0.651 | x | x | x | x | 4.3

Part of the list above with just UCH37 DUB inh and rRNA inh HTS RFP.
cpd	SMILES	UCH37 DUB inh	rRNA inh HTS RFP
42	CCn1ccnc1CN(C)Cc1cn(-c2ccc(C)cc2)nc1-c1ccc(F)cc1	4.0	1.8
43	NC(=O)c1ccc(NC(=O)COC(=O)c2ccc3c(c2)OCO3)cc1	0.0	-0.3
44	O=C1CN(C(=O)COC(=O)c2cccc(S(=O)(=O)NCc3ccccc3)c2)c2ccccc2N1	1.3	x
